Assay outcomes as filed in PubChem BioAssay.
D2 potentiator: Beta-Arrestin HTS for Positive Allosteric Modulators of the Human D2 Dopamine Receptor: Potentiators; D(2) dopamine receptor (Homo sapiens), P14416; DiscoveRx D2 beta-arrestin cells, luminescence, 90 min; 100% = 57 uM dopamine signal; potentiation, % (test concentration not listed); 360,000 compounds, 0.23% hits; active = potentiation of 50% or more; inconclusive = 30% to 50%; inactive = 30% or less;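 also: compound concentration not given in the record; tested on top of an EC20 dose of dopamine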
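PathHunter D2 cells, attached overnight at 37 deg C, received compound in DMSO plus dopamine at EC20 (50 nM final) for 90 min at 37 deg C. Beta-arrestin recruitment was read as luminescence after 1 h with detection reagent at ambient temperature.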
D2 ag: Beta-Arrestin HTS for Positive Allosteric Modulators of the Human D2 Dopamine Receptor: Agonists; 360,000 compounds, 0.084% hits; activation, % (no concentration beside the values); DiscoveRx PathHunter D2 beta-arrestin, luminescence, 90 min; 100% = 57 uM dopamine signal; D(2) dopamine receptor (Homo sapiens), P14416; in the data active = activation above about 40%; inconclusive = about 15% to 40%; inactive = below about 15%; also: compound concentration not given in the record; the text of the record calls up to 30% inactive
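DiscoveRx PathHunter D2 beta-arrestin cells (2,100/well) attached overnight, then compound-stimulated 90 min at 37 C in HBSS/10 mM HEPES/0.1% Tween-20 buffer; beta-galactosidase complementation read by luminescence after 1 h at ambient temperature. Dopamine 57 uM final (EC100) as control.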
PINK1 modulator: A Quantitative High throughput Screen to Identify Chemical Modulators of PINK1 Expression | AID 624263, 2012 | 410,000 compounds, 0.2% hits | Potency, µM (highest dose often 76.6 µM), for inactives: at the top dose activation (PINK1 increase), usual class: activators | PINK1 immunofluorescence, high-content cytometry, 24 h; active = well fitted activation curve with a large enough effect; inconclusive = small, poorly fitted or top-dose-only effect; inactive = flat fitted curve, though single readings scatter; cell line not stated here;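 also: potency is read from the fitted curve at half-maximal effect; % of control where 0% means no effect; nearly all actives have a fitted effect of over 65% in size; a mitochondrial uncoupler was the plate control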
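PINK1 protein level read as immunofluorescence by microplate cytometer in a fixed, stained stable cell line after 24 h exposure to five compound concentrations, with CCCP as control.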
Six1-Eya2 blk: qHTS Assay for Inhibitors of the Six1/Eya2 Interaction | Homeobox protein SIX1 (Homo sapiens) + Protein phosphatase EYA2 (Homo sapiens), … | AlphaScreen GST-Six1/His-Eya2 binding, biochemical; hits give low values; control for the full effect not named in the record | activity change, % (concentration not given with the values) | 360,000 compounds, 0.56% hits | AID 651725, 2012; in the data active = activity change below about -65%; inconclusive = about -30% to -65%; inactive = above about -30%; also: % is scaled to controls: 0 for no effect and ±100 for the full control effect
Target sequence (O00167 whole entry, looked up): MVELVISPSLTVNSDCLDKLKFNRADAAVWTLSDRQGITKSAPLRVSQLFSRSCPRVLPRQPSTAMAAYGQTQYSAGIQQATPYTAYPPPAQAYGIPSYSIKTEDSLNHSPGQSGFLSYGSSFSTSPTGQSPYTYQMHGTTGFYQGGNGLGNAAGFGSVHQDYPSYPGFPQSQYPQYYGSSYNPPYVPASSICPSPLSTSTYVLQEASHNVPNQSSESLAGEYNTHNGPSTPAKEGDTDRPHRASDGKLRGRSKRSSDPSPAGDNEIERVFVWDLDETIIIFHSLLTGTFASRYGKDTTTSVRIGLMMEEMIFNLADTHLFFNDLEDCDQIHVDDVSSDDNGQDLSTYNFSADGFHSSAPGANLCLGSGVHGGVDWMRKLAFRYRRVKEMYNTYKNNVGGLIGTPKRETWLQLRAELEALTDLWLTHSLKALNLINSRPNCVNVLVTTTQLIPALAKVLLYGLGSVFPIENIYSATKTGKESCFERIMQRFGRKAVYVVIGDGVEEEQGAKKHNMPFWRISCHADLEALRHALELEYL
Target sequence (Q15475 whole entry, looked up): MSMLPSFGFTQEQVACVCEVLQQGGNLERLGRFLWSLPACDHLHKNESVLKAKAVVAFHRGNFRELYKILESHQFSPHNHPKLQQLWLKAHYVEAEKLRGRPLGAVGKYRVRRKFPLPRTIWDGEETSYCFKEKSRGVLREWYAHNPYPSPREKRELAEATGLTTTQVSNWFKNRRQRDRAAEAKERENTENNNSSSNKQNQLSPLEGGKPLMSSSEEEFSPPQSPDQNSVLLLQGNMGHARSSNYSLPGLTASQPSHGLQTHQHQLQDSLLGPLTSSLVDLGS
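AlphaScreen luminescence read after one hour at 37 °C in darkness. Pin-transferred compounds met GST-Six1 and His-Eya2 protein (5X stock 250 nM/500 nM) plus glutathione donor and Ni-chelate acceptor beads (5X, 50 ug/mL).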
TRPML1 agonist: qHTS for Agonists of the Human Mucolipin Transient Receptor Potential 1 (TRPML1); 410,000 compounds, 0.12% hits; AID 624414, 2012; TRPML1-expressing cells, Ca2+ dye fluorescence, FDSS; host cell line not named in the record; reference of the full effect not given here; activation, % (no concentration beside the values); in the data active = activation above about 50%; inconclusive = about 30% to 50%; inactive = below about 30%; also: 0% is about no effect; the text of the record puts the active cut at 80%
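Tet-induced TRPML1-DL cells, 1,500 per well, cultured overnight, were loaded with a no-wash Ca2+ dye for 45–90 min. Calcium fluorescence was recorded on the FDSS for 110 s after compound addition, before the EC80 agonist (4 uM 54-4) was added.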
CtBP-E1A blk: qHTS Assay for Inhibitors of the CtBP/E1A Interaction; activity change, % (no concentration beside the values); AID 651724, 2012; AlphaScreen GST-E1A/His-CtBP binding, 1536-well; hits give low values; control for the full effect not named in the record; 340,000 compounds, 0.49% hits; in the data active means activity change below about -65%; inconclusive means about -30% to -65%; inactive means above about -30%; also: % is scaled to controls: 0 for no effect and ±100 for the full control effect
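Steps: dispense buffer (Tris pH 8.0, NaCl 300 mM, TCEP 1 mM, BSA, Tween 20); add 5X protein mix (GST-E1A, His-CtBP, 125 nM each); pin 23 nL compound; 2 h at 37 °C, dark; add 5X beads (50 ug/mL); 1 h; read.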
Active calls of the source: *; ? = inconclusive; nt = no result given; & = joins results of further samples; [ ] = dose if it differs, or a comment. Not a hit list; about 1.3% have a hit in one of these screens.

SMILES,D2 potentiator,D2 ag,PINK1 modulator,Six1-Eya2 blk,TRPML1 agonist,CtBP-E1A blk
Cc1cc2cc(C(c3nnnn3C3CCCC3)N(Cc3cccnc3)Cc3ccco3)c(=O)[nH]c2cc1C (stereo unspecified),-4,-2.8,5.4%[38.3 µM],-1,-0.3,-3
Cc1ccc(C)c(-n2c(-c3csc(C)c3C)n[nH]c2=S)c1,-2,-1.5,0.6%,-16,0.0,-1
CSc1ccc(-c2cccc3nncn23)cc1,-3,-2.8,-0.7%,1,-0.1,-4
Cc1cccc(-c2cc(C(=O)N/N=C/c3cccnc3)c3ccccc3n2)c1,-4,-4.3,2.5%,-6,2.3,-21
CCCC(C)C(=O)Nc1ccc(NC(C)=O)cc1 (stereo unspecified),-7,3.0,0.8%,5,0.2,1
CCn1c(=O)cc(SCC(=O)N2CCN(c3ccccn3)CC2)c2ccccc21,-24,-1.2,1.6%,2,1.4,10
CCCc1cc2c(cc1NC(=O)c1ccccc1C)OCO2,-13,-1.7,-0.7%,8,-0.8,-6
COC(=O)C1C(=O)/C(=C/N(C)C)C(=O)CC1(C)C (stereo unspecified),-32,3.6,1.3%,7,0.7,4
O=C1CCC(C(=O)OCC(=O)c2c[nH]c3ccccc23)=NN1,-19,-1.3,0.6%,25,0.5,30
NC(=O)c1ccccc1NC(=O)c1ccccc1F,-16,1.6,1.0%,8,-0.1,-3
Cc1ccc(-c2ccc(=O)n(CCC(=O)N3CCN(c4ccccc4)CC3)n2)cc1,-7,-2.3,4.4%,3,1.9,-6
O=S(=O)(NCC(c1ccccc1)N1CCC(O)CC1)c1ccc(Cl)cc1 (stereo unspecified),-9,2.1,-1.0%,2,0.3,4
O=c1[nH]nc(-c2ccc([N+](=O)[O-])o2)c(=O)[nH]1,4,1.4,-0.1%,7,-0.8,-7
COc1ccc(OC)c(N(CC(=O)Nc2cccnc2)S(=O)(=O)c2ccccc2)c1,-1,-1.6,-2.9%,4,-0.7,3
Cc1csc(NC(=O)Cc2c[nH]c3ccccc23)n1,15,-0.3,3.6%,-11,-0.7,-9

In another format: entries from further up
Every second line gives: D2 potentiator, D2 ag, PINK1 modulator, Six1-Eya2 blk, TRPML1 agonist, CtBP-E1A blk
NC(=O)c1ccccc1NC(=O)c1ccccc1F
    -16, 1.6, 1.0%, 8, -0.1, -3
Cc1ccc(-c2ccc(=O)n(CCC(=O)N3CCN(c4ccccc4)CC3)n2)cc1
    -7, -2.3, 4.4%, 3, 1.9, -6

Going on with the list:
SMILES,D2 potentiator,D2 ag,PINK1 modulator,Six1-Eya2 blk,TRPML1 agonist,CtBP-E1A blk
CCOc1ccc(C(=O)Nc2nnc(C)s2)cc1OCC,-6,-0.9,0.2%,0,0.6,8
CSc1ccc(CN2CCC(C)(Oc3cccc(Cl)c3)C2)cc1 (stereo unspecified),0,9.3,10%,-7,-0.8,0
COc1cccc(C(=O)/C=C/Nc2ccc(S(=O)(=O)Nc3cccc(C(C)=O)c3)cc2)c1,-2,3.3,-0.7%,-11,0.5,-16
CCOC(=O)[C@H]1[C@H]2COc3ccccc3[C@@H]2N2C(=O)c3ccc(Cl)cc3NC(=O)[C@@]12C,-17,-0.7,2.5%,0,-1.2,2
C=COCCNC(=S)N1CCOCCOCCN(C(=S)NCCOC=C)CCOCCOCC1,-7,-0.1,-0.1%,11,0.1,-10
Cc1ccc2c(c1)cc1c(=O)n(CC(=O)N3CCCC3)nc(C)n12,-8,-1.7,-0.9%,5,-0.7,2
O=C(Cn1cc([N+](=O)[O-])cn1)N1CCCc2ccccc21,-1,-2.2,1.6%,10,-0.4,6
CCc1ccc(N(CC(=O)N2CCOCC2)S(C)(=O)=O)cc1,-2,0.3,-0.6%,8,-0.1,1
CN1C(C)(C)CC(NC(=O)c2ccco2)CC1(C)C,4,6.2,4.1%,5,0.9,nt
CCCNC(=O)CSc1nnc(-c2ccccc2Br)n1-c1cccc(C(F)(F)F)c1,-12,-4.6,1.9%,17,1.7,0
O=C(NCCS(=O)(=O)N1CCN(c2cccc(Cl)c2)CC1)c1ccc2c(c1)OCO2,-3,4.1,6.7%,?,0.2,-21
CCC1(c2ccc(F)cc2)NC(=O)N(CC(=O)N2c3ccccc3CC2C)C1=O (stereo unspecified),6,-0.7,0.6%,-1,12,nt
Cc1cccc(C)c1NC(=O)NC1(C(=O)NCc2ccncc2)CCCCC1,-4,-2.8,-0.6%,5,0.1,-1
O=C(CSc1nc2cc(Cl)ccc2c(=O)n1Cc1ccco1)Nc1ccc(S(=O)(=O)N2CCOCC2)cc1,9,0.3,0.1%,3,0.4,5
CC(NC(=O)c1ccccc1Cl)C(=O)NCc1cccs1 (stereo unspecified),-12,-2.9,-0.1%,5,-0.5,5

Following part:
SMILES,D2 potentiator,D2 ag,PINK1 modulator,Six1-Eya2 blk,TRPML1 agonist,CtBP-E1A blk
O=C(COC(=O)CNC(=O)c1cccc(Br)c1)Nc1nnc(-c2ccccc2)o1,-6,-0.6,-1.8%,0,-0.2,-21
CCOC(CCNC(=O)CCC(=O)Nc1ccc2nc(N3CCN(C)CC3)cc(C)c2c1)OCC,-4,-0.9,0.6%,10,1.2,-6
COc1cccc(NC(=O)N2CCCC(C(=O)Nc3ccccc3OC)C2)c1 (stereo unspecified),-6,2.1,-3.6%,0,-1.2,-6
Cc1cc(NC(=O)CCC(=O)N(CC(=O)NCC2CCCO2)Cc2ccc(F)cc2)no1 (stereo unspecified),-2,-0.6,-0.1%,9,0.1,11
CCCCC(=O)Nc1ccc(N2CCN(c3ccc(F)cc3)CC2)cc1,-1,-1.8,4.2%,9,0.4,9
C=CCOc1ccc(/C=N/N2C(=O)C(CC(=O)Nc3ccc(F)cc3F)SC2=NC)cc1 (stereo unspecified),13,2.7,2.3%,2,-0.4,4
COc1ccc(OCC(O)Cn2c(=N)n(CCN3CCOCC3)c3ccccc32)cc1 (stereo unspecified),7,-4.0,-0.7%,-18,-0.1,-19
CC1(C)CC(=O)C2=C(C1)OC(N)=C(C#N)C2c1ccsc1 (stereo unspecified),-21,-4.5,-0.8%,-1,-0.3,0
C=CCCCN(Cc1ccccc1)S(=O)(=O)c1ccccc1Br,-1,-1.6,2.0%,28,2.8&1.2,21
O=C1C=C(c2cccc(Br)c2)C[C@@H](c2ccc(Cl)cc2)C1,-4,-8.1,0.6%,7,2.2,12
COc1cc(C(C)=O)ccc1OCC(=O)OC(C)C(=O)c1ccc(F)cc1 (stereo unspecified),-1,2.8,2.9%,0,-0.5,nt
C/C(N)=C(/C#N)C(=O)CSc1nnc(Nc2ccccc2C)s1,3,-4.1,6.1%,0,0.5,-8
CCn1c(SCC(=O)Nc2ccc3c(c2)OCCO3)nnc1-c1ccccn1,-8,-3.0,7.4%[38.3 µM],-9,1.6,-4
CCOc1cc(CNc2ccccc2)cc(Br)c1OCc1ccc(F)cc1,5,-2.6,1.8%,3,1.7,20
COc1cccc2cc(C(=O)Oc3ccccc3)c(=O)oc12,0,7.8,-0.8%,0,-0.6,nt

Copied from the list.
C=CCCCN(Cc1ccccc1)S(=O)(=O)c1ccccc1Br in D2 ag shows -1.6
CCOC(CCNC(=O)CCC(=O)Nc1ccc2nc(N3CCN(C)CC3)cc(C)c2c1)OCC in TRPML1 agonist shows 1.2
CCn1c(SCC(=O)Nc2ccc3c(c2)OCCO3)nnc1-c1ccccn1 in PINK1 modulator shows 7.4%[38.3 µM]

Remaining list, next part
SMILES,D2 potentiator,D2 ag,PINK1 modulator,Six1-Eya2 blk,TRPML1 agonist,CtBP-E1A blk
CC(Cc1ccsc1)NC(=O)CCc1nnc(CCc2ccccc2)o1 (stereo unspecified),-5,-3.9,2.5%,10,-0.9,6
CCc1noc(C)c1C(=O)NNC(=O)COc1ccc(C)c(C)c1,2,-2.2,?,3,-0.1,-23
COc1ccc(C(=O)CN2CC(C)SC2=Nc2ccc(Cl)cc2)cc1 (stereo unspecified),-38,-1.6,19%,-2,0.3,0
CC(=O)Nc1ccc(NC(=O)COC(=O)/C=C/c2ccc3c(c2)OCO3)cc1,1,1.5,2.5%,5,0.3,-3
CCOc1ccccc1NC(=O)c1nnn(-c2ccc3c(c2)OCCO3)c1N,-4,5.2,2.5%,11,0.4,0
CCN(Cc1cnn(C)c1)Cc1nc(Cc2ccccc2Cl)no1,-6,3.4,-0.2%,2,0.2,-9
Cc1ccc(NC2Sc3ccccc3NC2=O)cc1Cl (stereo unspecified),-18,-4.6,7.6%,-3,0.8,nt
O=C(Nc1ccc(-c2nnco2)cc1)c1ccccc1,-8,-1.4,1.3%,6,-0.1,-6
O=C(NC1=NCCS1)c1ccc(Cl)c(S(=O)(=O)N2CCCCCC2)c1,-16,1.7,7.2%,0,0.2,nt
CCOc1cccc(NC(=O)c2cccc(F)c2)c1,11,5.1,1.5%,6,0.5,-2
O=C(NCc1ccccc1)C1=C[C@@H](c2coc3ccccc3c2=O)C[C@@H](OCc2ccc(CO)cc2)O1,3,1.1,1.5%,-7,0.1,-3
CCOc1ccc(-n2c(O)c(/C=N/Nc3nc(C)cc(C)n3)c3ccccc3c2=O)cc1,0,-0.1,1.2%,3,-1.3,-7
CCCC/C(=N\NC(=O)c1ccc(Br)o1)c1ccccc1,-9,-3.3,4.4%,-21,0.7,-15
CN(CC(=O)Nc1cccc(F)c1)C(=O)c1cccc(S(=O)(=O)N2CCN(c3ccc(F)cc3)CC2)c1,-2,5.5,0.6%,-4,3.0,-20
O=c1c2c(-c3ccccc3)csc2ncn1/N=C/c1ccc(O)c([N+](=O)[O-])c1,-16,-4.2,-2.4%,2,0.4,nt
O=NNc1nc2ccccc2n1Cc1ccccc1,-4,0.0,7.6%,-22,0.9,?
O=C(COC(=O)Cc1ccsc1)Nc1ccc(Cl)c(S(=O)(=O)N2CCOCC2)c1,-20,-6.4,3.4%,-6,5.4,6
